Compound activity as filed in PubChem BioAssay.
Ab BasE inh = blocks the Acinetobacter baumannii siderophore enzyme BasE. purified BasE, fluorescence polarization binding displacement. inhibition, % (no concentration beside the values). 0.1% of 84,000 active;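 active means both replicates above 25% with normal brightness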;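 further: 0% = negative plate control signal and 100% = positive plate control signal; stock transfer was 100 nL into about 30 µL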
LANA-nucl inh = inhibitors of KSHV LANA binding to nucleosomes; FITC-LANA1-23 / chicken nucleosome fluorescence polarization; active compounds read low; z-score (test concentration not listed); 0.3% of 51,000 active; AID 720717;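 active means both repeat wells score below -2 in polarization z-score versus plate sample wells, excluding overly bright wells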;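 further: 100 nL library stock added to about 30 µL; numbers are from one replicate; some results filed as inactive read as strong as hits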
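Assay system: FITC-LANA peptide and chicken nucleosomes; input: 240 nM purified chicken nucleosomes (480 nM peptide binding sites), final; also added: 50 nM FITC-LANA1-23 probe; medium: TEN-BT buffer, pH 7.5; doses: pin-transferred compound, 100 nL; times: 10–45 min, room temperature; technique: fluorescence polarization; replication: duplicates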
The depositor's hits bear a star; / = not tested or not shown.

Structure	Ab BasE inh	LANA-nucl inh
CN(CCOc1ccccc1)CC(=O)Nc1ccc(Br)cc1F	3.5	/
CN(CC(=O)N1CCC(Cc2ccccc2)CC1)S(=O)(=O)c1cccs1	0.4	/
CCCNCc1cccn1-c1nnc(N2CCCC2)s1	-3.1	/
Cn1cccc1C=C1C(=O)c2ccccc2C1=O	1.4	-1.02
Clc1ccccc1N1CCN(C2=Cc3ccccc3CC2)CC1	1.8	/
O=CNCc1ccc(F)cc1	1.7	/
CCc1nnc(NC(=O)c2ccc3c(c2)[nH]c(=O)c(=O)n3CC)s1	-0.1	/
O=C(O)C1C2C=CC(O2)C1C(=O)NCCc1cccc(Cl)c1 (stereo not given)	-1.5	0.504
Cn1ncc2c(NNC(=S)Nc3ccc(F)cc3F)ncnc21	4.9	-0.204
O=C(CSc1oc(-c2ccc(Cl)cc2)nc1S(=O)(=O)c1ccccc1)N1CCCC1	-0.2	/
Cc1ccc(S(=O)(=O)NC(=O)N2CCCc3cc(SC#N)ccc32)cc1	2.3	/
CC1CCCCN1C(=O)NC12CC3CC(CC(C3)C1)C2 (stereo not given)	1.4	-0.029
O=C(c1ccco1)N(C(=O)c1ccco1)c1nc2ccccc2nc1N1CCOCC1	1.5	/
O=C(c1ccc(F)cc1F)N1CCN(Cc2ccc3c(c2)OCO3)CC1	/	-0.284
COc1cc2c(cc1OC)CN(C(=O)c1sc(-c3cnccn3)nc1C)CC2	-0.8	/
O=C(Nc1ccc(Cl)cc1)OCc1nccn1Cc1ccc(Cl)cc1	2.6	/
CCc1ccc(/C=N/n2c(C)nnc2-n2nc(C)cc2C)cc1	-2.8	/
N#Cc1ccc2c(c1)N(CCCN1CCC(O)CC1)c1ccccc1S2	-1.6	-0.415
O=C(CC1CCCCC1)NCc1ccco1	2.7	-0.0025
O=C(Cc1coc2cc3c(cc12)CCC3)OCCN1CCCC1=O	0.9	/
O=C(CSCc1ccccc1Cl)N/N=C/c1ccco1	-2.4	-0.0925
CC(Sc1cccc[n+]1[O-])C(=O)N1CCN(C(=O)c2ccco2)CC1 (stereo not given)	1.8	/
O=C(Nc1ccccc1)Nc1ccc(Br)cc1	0.2	/
COc1ccc(-n2c(N(C(C)=O)C(C)=O)c(C#N)c3nc4ccccc4nc32)cc1	1.6	/
CC(N)CCCc1ccccc1 (stereo not given)	-4.5	0.498
Cc1[nH]c(=O)[nH]c(=O)c1Oc1ccccc1	-2.9	2.35
COc1ccc(OC)c(NC(=O)CNc2cc(OC)c(Cl)cc2OC)c1	1.1	/
O=C(N/N=C/c1ccco1)c1ccc(CSc2nc3ccccc3s2)cc1	1.5	/
COC(=O)c1ccc2c(c1)CCO2	-2.2	/
Cc1ccc2c(c1)NNc1nncn1-2	3.7	-0.381
COc1ccc(-n2c3c(cc(C(N)=O)c2=O)C(=O)CC(C)(C)C3)cc1	1.7	/
COC(=O)c1ccc(S(=O)(=O)N2CCCN(Cc3ccc(F)cc3)CC2)n1C	-0.1	0.0995
CCN(CC)c1ccc2cc(C(=O)Nc3ccccc3)c(=N)oc2c1	-6.8	/
O=C(CC1C(=O)NCCN1C(=O)Nc1ccccc1)Nc1ccc(F)cc1 (stereo not given)	1.8	-0.348
ON=C1CCN(c2ncc(C(F)(F)F)cc2Cl)CC1	/	0.274
CCCN1CCN(C(=O)c2ccccc2CSc2ncn[nH]2)CC1	2.1	/
CSc1nnc(C)c(=O)n1COC(=O)c1ccccc1	0.7	-0.487
CCCN(Cc1nnc(-c2ccco2)o1)C(=O)c1ccc2c(c1)CC(c1ccccc1)OC2=O (stereo not given)	0.8	/
CC(=O)Nc1ccc(C2Nc3ccccc3-c3nc4ccccc4n32)cc1 (stereo not given)	1.6	/
CCCN(Cc1nnc(-c2ccco2)o1)C(=O)c1ccccc1SCC(=O)Nc1ccc(F)cc1	0.3	/
CCOC(=O)c1cnc2ccc(Cl)cc2c1-c1ccccc1	/	-1.14
COC(=O)c1cc2c(N)c(C(=O)OC)sc2nc1C(OC)OC	2.2	/
COc1ccc(OC)c(S(=O)(=O)N2CCC(C(=O)NCCC3=CCCCC3)CC2)c1	3.1	0.144
CN(C)C(=O)CN1CCC(N2CCCCC2)CC1	3.4	-0.624
CCOC(=O)CC1(C)NNC(=S)NN1	2.7	/
Cc1ccc(NC(=O)NNc2ccc(S(=O)(=O)N3CCCCC3)cn2)cc1	-2.6	/
NC1CCN(C(=O)NC2CCCCC2)CC1	0.7	0.655
CCOC(=O)c1c(NC(=S)NC(=O)c2c(I)cnn2C)sc2c1CCC(C)C2 (stereo not given)	-0.1	-0.521
CC(C)(C)C(=O)O/N=C/c1ccc2c(c1)OCO2	-1.5	-0.7
COC(=O)C1CCN(C(=O)c2ccc(NC(C)=O)cc2)CC1	0.7	-0.979

In the list so far, 2 have bromine.
Structure	Ab BasE inh	LANA-nucl inh
CN(CCOc1ccccc1)CC(=O)Nc1ccc(Br)cc1F	3.5	/
O=C(Nc1ccccc1)Nc1ccc(Br)cc1	0.2	/

(further entries)
Structure	Ab BasE inh	LANA-nucl inh
CCN1CCN(c2nc3ccccc3nc2C(C#N)C(=O)OCc2ccccc2)CC1 (stereo not given)	-1.7	-0.98
CCNC1CC(N)C(OC2OC(CN)=CCC2N)C(O)C1OC1OCC(C)(O)C(NC)C1O (stereo not given)	-1.8	0.434
O=C(COC(=O)c1ccc(CO)cc1)c1ccc(OC(F)F)cc1	-5.8	/
Cc1nc(C(=O)Oc2ccc(Cl)cc2)sc1C(=O)Oc1ccc(Cl)cc1	-0.3	/
CN1CCCCC/C1=N/c1nc(-c2ccccc2)cs1	-2.8	/
CCOc1ccc(C(=O)C(C)Sc2nc(C)cc(=O)[nH]2)cc1 (stereo not given)	-0.5	/
CCN(CC)CCNCc1ccc(-c2ccccc2)o1	-2.5	-0.069
COC(=O)c1ccc(CC2(Cc3ccc(C(=O)OC)o3)C(=O)N(C)C(=O)N(C)C2=O)o1	3.2	/
CC(C(=O)C12CC3CC(CC(C3)C1)C2)N1CCCC1 (stereo not given)	-0.6	0.586
COC(=O)C1=C(CNc2ccc(I)cc2)NC(=O)NC1c1cc(C)ccc1C (stereo not given)	1.3	-0.952
Cn1cccc1/C=C/C(=O)OCC(=O)NC1(C#N)CCCCC1	-0.2	/
CC1CCC(=NNC(=O)Cc2ccccc2)CC1 (stereo not given)	1.9	0.573
CC(=O)N(C)c1ccc(N=Cc2ccc[nH]2)cc1	1.1	-0.101
CCCNC(=O)c1cnn2c(C)c(Cc3ccc(F)cc3)c(C)nc12	0.3	-0.344
O=C(Cc1ccc2ccccc2n1)C(F)(F)F	1.2	-0.372
CCCn1c(NC(=O)c2ccccc2)nc2ccccc21	1.0	/
CCOC(=O)c1ccoc1CN1CCN(C/C=C/c2ccccc2)CC1	-0.5	/
CC1C(=O)NN=C1C(=O)N/N=C/c1ccc(OC(=O)c2ccco2)cc1 (stereo not given)	0.4	/
COc1ccccc1N1CCN(C(=O)c2sc3nc(-c4ccc(F)cc4)cn3c2C)CC1	1.0	0.259
C=CCN1C(=O)CN=C1NCc1ccccc1	-1.1	-1.63
Cc1ccc(Nc2nc3ccccc3o2)cc1F	-3.4	/
O=C(CCSc1nnnn1-c1ccccc1)Nc1ccc(Cl)cc1	0.1	-1.53
CCOC(=O)C(C)Sc1nc(-c2ccccc2)ccc1C#N (stereo not given)	-3.0	0.718
CN(C)c1ccc(C(=O)Nc2ccc(CN3CCS(=O)(=O)CC3)cc2)cc1	-0.9	-0.302
CC1=Nc2c(ccc3cccnc23)C1(C)C	3.0	0.768
C=CCn1c(SCC(=O)c2ccc(CNC(C)=O)s2)nnc1C1CCCCC1	1.1	/
COC(=O)c1ccccc1NC(=O)c1noc2c1CCc1ccccc1-2	1.4	0.32
Cn1ccsc1=NC(=O)Cc1coc2ccc3ccccc3c12	-8.8	/
CCc1cc(N2CCN(C(C)=O)CC2)n2c(nc3ccccc32)c1C#N	-4.4	/
CN(C)C(CNC(=S)Nc1ccccc1Cl)c1ccco1 (stereo not given)	-3.2	/
CC(Sc1nc2cc(Cl)ccc2n1Cc1ccccc1)C(=O)NC(N)=O (stereo not given)	0.3	/
NC(=O)C1CCCN(C(=S)NC2CCCCC2)C1 (stereo not given)	0.3	/
CC(Sc1nnc(CNC(=O)c2ccccc2F)n1C(C)C)C(=O)Nc1nccs1 (stereo not given)	2.4	1.18
O=C(CNc1ccc(S(=O)(=O)N2CCCC2)cc1)N1CCc2ccccc21	2.8	/
Oc1ccc(Br)cc1C=Nc1cccc2nsnc12	-1.2	/
CC1=NN(c2ccccc2)C(=O)C12CC(C)=C(C)CS2 (stereo not given)	0.4	/
O=C1CC(c2ccccc2)Oc2ccc(Cl)cc21 (stereo not given)	3.1	/
Cn1c(C(=O)O)c(CNCc2ccccc2)c2ccccc21	-1.8	0.129
O=S1(=O)N=C(N2CCN(c3ccccc3)CC2)c2ccccc21	-0.3	-0.062
Cc1ccc2c(c1)c1nc3ccccc3nc1n2CC(C)C	2.9	-1.33
CCOC(=O)C1CCN(c2cc(Nc3ccccc3C(=O)O)c3c4c(onc24)-c2ccccc2C3=O)CC1	-34.7	2.65
CCn1c(=NC(=O)c2ccco2)sc2cc(Cl)ccc21	-1.5	0.7
COc1cccc(Nc2nnc(SCC(C)C)s2)c1	2.8	/
O=C(O)/C=C/c1c[nH]c(=O)[nH]c1=O	2.8	-0.645
CC(C)C(NS(=O)(=O)c1ccc2c(c1)CCCC(=O)N2)C(=O)N1CCN(c2ccccc2)CC1 (stereo not given)	0.5	/
CC(CC(=O)O)CC(=O)N1CC(C)OC(C)C1 (stereo not given)	-4.8	1.41
O=C(NCC1CCCCC1)C1CCCN1C(=O)NC1CCCCC1 (stereo not given)	0.6	-0.851
CS(=O)(=O)N1CCCc2cc(C(=O)N3CCN(Cc4ccccc4)CC3)ccc21	-0.4	0.246
O=C(O)c1ccccc1SCc1cc(=O)n2nc(-c3ccco3)sc2n1	2.2	0.652
Cc1ccc(CNC(=O)c2cc(=O)[nH]c3ccccc23)n1C	-0.2	/

The results go on:
Structure	Ab BasE inh	LANA-nucl inh
Nc1ccc2nc(-c3ccccc3-c3nc4ccc(N)cc4[nH]3)[nH]c2c1	-0.6	/
O=c1c2c3c(sc2nc2sc(-c4ccncc4)nn12)CCCC3	4.8	/
Cc1noc(C)c1CSc1nc2cc(C(=O)O)ccc2c(=O)n1Cc1ccccc1	2.4	/
O=c1cc(-c2ccccc2)ss1	3.5	/
CSc1ccccc1C(=O)OCC(=O)Nc1ccc(S(N)(=O)=O)cc1	-4.8	/
N#Cc1ccc(OCC(F)(F)F)c(C#N)c1OCC(F)(F)F	-0.5	0.744
CC12CCC(=O)N1C(C(=O)OCc1cc(=O)n3ccsc3n1)CS2 (stereo not given)	1.7	/
O=C(OCc1ccc(F)cc1)C1=NN(c2ccccc2)C(=O)CC1	1.0	/
CCc1nn(CC(=O)NC2CCCC(C)C2C)c(=O)c2cc3sc(C)cc3n12 (stereo not given)	-2.0	-0.249
O=C(NC1CCCC1)c1cc(NS(=O)(=O)c2ccc(F)cc2)ccn1	-0.4	-0.841
Cc1csc(N(C(=O)CSc2nnc(C)n2-c2ccccc2)c2ccccc2)n1	-1.4	/
CC1COc2c(N3CCN(C)CC3)c(F)cc3c(=O)c(C(=O)OCc4ccccn4)cn1c23 (stereo not given)	-0.4	/
Cc1c(CC(=O)NN)sc2ccc(Cl)cc12	-2.9	/
Cc1ccc(C2=NC3(CCCCC3)NC2=O)cc1	0.7	0.914
Oc1ccccc1Oc1c(F)c(F)nc(F)c1Cl	0.1	0.195
CNC(=S)N(Cc1cc2cc(OC)ccc2[nH]c1=O)CC1CCCO1 (stereo not given)	0.2	-0.63
CC(C)NC(=O)CCn1nc(-c2ccc(Cl)cc2)c2ccccc2c1=O	1.4	0.028
COc1ccc(NC(=O)C(C)n2sc3ccccc3c2=O)c(OC)c1 (stereo not given)	0.7	-0.623
O=C(Cn1cnc2c(cnn2-c2ccccc2)c1=O)N1CCCc2ccccc21	-2.3	-0.186

Gathered by group, those above containing a CF3 group
Structure	Ab BasE inh	LANA-nucl inh
ON=C1CCN(c2ncc(C(F)(F)F)cc2Cl)CC1	/	0.274
O=C(Cc1ccc2ccccc2n1)C(F)(F)F	1.2	-0.372
N#Cc1ccc(OCC(F)(F)F)c(C#N)c1OCC(F)(F)F	-0.5	0.744

Not all compounds are listed; count on the stated rates, not on these rows.
